Compound activity as filed in PubChem.
E coli growth – E. coli growth inhibition, primary screen, OD600; AID 1053175, 2014; 330,000 tested, 0.21% active; Escherichia coli growth, 23 h; hits give low values; OD600 absorbance (no concentration beside the values);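 active = OD600 absorbance below the run mean of sample wells minus 3.6 SD, in any replicate, cut at about 0.56 in these data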;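 also: stock transfer was 300 nL into about 60 µL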
B2AR ag – beta2AR agonists driving receptor internalization, primary screen, cell-based, FAP fluorogen, flow cytometry | Am2.2-beta2AR cells; reference of the scale not given here | AID 504454, 2011 | response, % (concentration not given with the values) | 340,000 tested, 0.43% active;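 active = response above a set limit, near 3 SD of response in nonfluorescent compounds, cut at about 42% in these data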;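 also: stock transfer was 100 nL into about 11 µL; a reference agonist was the positive control; negative values mostly stem from fluorescent compounds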
Vif TR-FRET – inhibitors of Vif binding to APOBEC3G peptide, primary screen, biochemical, TR-FRET, GST-Vif 1-94, biotin-A3G peptide, dose response retest (AID 1117319); TR-FRET GST-Vif / biotin-A3G peptide binding; higher % means a stronger effect; test concentration not given here; strong numbers were not always called active; inhibition, %; hits with a dose series show IC50 in µM; 260,000 tested, 0.57% active;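 active = above the screen mean plus three standard deviations and confirmed in dose response; inconclusive = results disagree or hit not tested in dose response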;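 also: Vif residues 1-94 fused to GST binding biotinylated APOBEC3G peptide 110-148; 0% = full assay without inhibitor and 100% = GST in place of GST-Vif; retest series ran down from 100 µM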
LANA-H2B inh – blockers of LANA interaction with H2A/H2B – biochemical, FP readout, HTS, primary screen; Protein LANA1 (Human herpesvirus 8 type P (isolate GK18)), Q9QR71; AID 2629, 2010; 320,000 tested, 0.6% active; inhibition, % (no concentration beside the values); cell-free LANA-H2A/H2B peptide, fluorescence polarization; in the data active = inhibition mostly above about 10%, no sharp cut-off; inactive = mostly below about 6.7%;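 also: stock transfer was 7.5 nL into about 10 µL; 0% = median of vehicle wells and 100% = median of positive control wells; one replicate is shown; the record names a cut of 25% in any replicate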
Target sequence (Q9QR71 whole entry, looked up): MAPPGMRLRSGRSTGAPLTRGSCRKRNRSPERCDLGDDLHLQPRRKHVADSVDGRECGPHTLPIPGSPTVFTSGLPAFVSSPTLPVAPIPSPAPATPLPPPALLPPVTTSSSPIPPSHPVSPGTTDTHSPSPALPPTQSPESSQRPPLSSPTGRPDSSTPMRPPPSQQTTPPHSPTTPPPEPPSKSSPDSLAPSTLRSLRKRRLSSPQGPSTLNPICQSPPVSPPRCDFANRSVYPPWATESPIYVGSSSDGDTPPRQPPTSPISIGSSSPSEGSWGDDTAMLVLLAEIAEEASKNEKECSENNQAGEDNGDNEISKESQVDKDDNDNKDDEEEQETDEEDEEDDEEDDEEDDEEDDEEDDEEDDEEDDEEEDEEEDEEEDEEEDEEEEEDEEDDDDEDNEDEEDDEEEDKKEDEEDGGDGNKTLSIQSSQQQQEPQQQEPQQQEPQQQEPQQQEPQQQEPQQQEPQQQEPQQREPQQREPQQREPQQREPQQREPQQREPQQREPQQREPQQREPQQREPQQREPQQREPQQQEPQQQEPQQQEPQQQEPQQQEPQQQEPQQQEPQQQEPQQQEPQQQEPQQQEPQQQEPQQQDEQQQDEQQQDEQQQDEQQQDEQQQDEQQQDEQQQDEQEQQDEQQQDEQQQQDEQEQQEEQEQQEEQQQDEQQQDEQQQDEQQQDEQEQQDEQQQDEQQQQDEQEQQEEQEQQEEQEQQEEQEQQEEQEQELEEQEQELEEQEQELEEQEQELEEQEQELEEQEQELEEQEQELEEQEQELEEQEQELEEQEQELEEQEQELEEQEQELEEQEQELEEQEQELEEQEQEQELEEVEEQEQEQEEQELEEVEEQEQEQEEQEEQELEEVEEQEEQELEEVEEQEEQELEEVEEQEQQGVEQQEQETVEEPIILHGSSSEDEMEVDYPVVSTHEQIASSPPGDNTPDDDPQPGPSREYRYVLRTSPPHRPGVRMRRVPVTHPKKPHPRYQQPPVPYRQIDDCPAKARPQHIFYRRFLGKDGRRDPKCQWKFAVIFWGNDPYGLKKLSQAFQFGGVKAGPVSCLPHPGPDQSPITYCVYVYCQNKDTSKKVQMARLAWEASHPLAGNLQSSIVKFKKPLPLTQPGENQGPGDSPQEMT
HNF4A DNA FP – change in binding of human HNF4A to DNA, primary screen, biochemical, fluorescence polarization, FITC-DNA. Hepatocyte nuclear factor 4-alpha (Homo sapiens), P41235. activity change, % at 10 µM. 360,000 tested, 0.3% active. 1 h; in the data active = activity change above about 30%, passing the limit was not always enough;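 also: controls were the assay level and a saturating level of protein; the project sought stronger binding though the title names inhibitors; some compounds called inactive have numbers as strong as hits; positive values seem to mean higher polarization but the record does not say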
UCH37 DUB inh – inhibitors of human UCH37 deubiquitinase, primary screen, biochemical, Ub-AMC cleavage, fluorescence. Ubiquitin carboxyl-terminal hydrolase isozyme L5 (Homo sapiens), Q9Y5K5. purified proteasome/UCH37. inhibition, % (test concentration not listed). 330,000 tested, 0.33% active. AID 588478, 2011;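 active = mean of two replicates above 20%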;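 also: 0% = compound-free wells with enzyme and 100% = wells lacking proteasome; stock transfer was 100 nL into about 20 µL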
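assay system = human UCH37 enzyme supplied as purified proteasome complex | amount = proteasome at 0.15 nM in the dispensed enzyme solution | schedule = 30 min compound-proteasome preincubation then 25 min substrate reaction, room temperature | measured by = fluorescence, ex 355 nm, em 460 nm | benchmarks = no-proteasome wells (full inhibition) and compound-free wells (no inhibition)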
Bfl-1 A1 inh – caspase 3/7 activation in MEF A1-2A-BIM cells, primary screen, A1 inhibitor project, cell-based, luminescence, HTS; Caspase-Glo 3/7 luminescence, 3 h; percent of clofoctol response, vehicle zero; caspase activation, % (concentration not given with the values); 330,000 tested, 0.066% active;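 active = over half of replicate activation scores above 10%, or exactly half above 10 with the replicate mean above 10; inconclusive = replicate mean below 10 yet half the replicates above 10; inactive = over half of replicates below 10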;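 also: wells of about 30 µL received 50 nL stock; many hits fall short of the cut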
Starred values were filed as active, the others as inactive; i = inactive; ? = inconclusive; . = no result given.

SMILES	E coli growth	B2AR ag	Vif TR-FRET	LANA-H2B inh	HNF4A DNA FP	UCH37 DUB inh	Bfl-1 A1 inh
CCn1c(SC(C)C)nnc1-c1c[nH]c2ccccc12	0.76	-11	4%	5.1	1.8	-1.9	-0.5
CC(C)(C)c1ccc(NC(=O)c2cc[n+]([O-])cc2)cc1	0.68	1	7%	5.2	0.8	5.5	0.7
CC(=O)NS(=O)(=O)c1ccc(NC(=O)C(Sc2ccccc2)c2ccccc2)cc1 (stereo unspecified)	0.76	2	2%	-2.3	-1.7	1.9	2.2
CC(C)c1ccccc1NC(=S)NN(Cc1ccccc1)c1ccccc1	0.7	30	5%	-3.0	3.0	5.5	0.2
Cc1cc(C(=O)OCC(=O)NCc2ccco2)c(C)n1-c1ccc(F)cc1	0.72	8	5%	45*	2.1	-1.2	0.3
Cc1ccccc1C(=O)NC(=S)Nc1ccccc1[N+](=O)[O-]	0.67	2	-4%	4.4	2.1	3.5	0.2
O=C(CCC1CCCC1)N1CCC(N2CCCCCC2)CC1	0.67	-6	7%	-1.2	-1.3	2.2	0.3
Cc1cc(C(=O)COc2cc(F)ccc2[N+](=O)[O-])c(C)n1C1CC1	0.71	4	-8%	-4.1	4.2	6.0	0.8
CCOc1cc(S(=O)(=O)N2CCOCC2)ccc1F	0.68	-8	4%	-4.2	1.4	4.2	0.6
CCOc1cc(CNCc2cccnc2)cc(Br)c1OCC(N)=O	0.64	14	.	-0.3	6.0	3.0	-2.0
Cn1c(=O)oc2cc(S(=O)(=O)N3CCCC(C(=O)N4CCc5ccccc5C4)C3)ccc21 (stereo unspecified)	0.73	-26	0%	-3.8	-2.8	4.4	-0.7
CCCCN(C(=O)NC(=O)Nc1c(C)cc(C)cc1C)S(C)(=O)=O	0.71	18	3%	-3.3	-1.9	4.4	-0.6
COc1cc(O)c2c(c1)OC(C)(C)CC2=O	0.69	0	2%	3.3	1.9	4.1	-0.1
N/C(=N\N=C\c1ccco1)SC1CC(=O)N(c2ccccc2)C1=O (stereo unspecified)	.	4	0%	0.1	-7.3	.	0.5
CN(C)CCNC(=O)c1cc2c(=O)n(C)c3ccccc3c2n1C	0.76	-8	-5%	6.2	-2.7	-0.4	-0.1
Cn1c(N)c(C(=O)COC(=O)CSc2ccc3ccccc3c2)c(=O)n(C)c1=O	0.68	10	-5%	7.7	1.0	1.7	0.1
Nc1ccc2c(c1)Cc1c(F)cccc1-2	0.7	4	1%	.	1.1	1.1	.
O=C(CSCc1ccc([N+](=O)[O-])cc1)NC1CC1	0.68	-5	-6%	-2.0	4.3	0.3	0.7
Cc1cccc(C)c1NC(=O)CN(C)S(=O)(=O)c1ccc(-c2ccc(=O)[nH]n2)s1	0.68	-3	.	-25	1.2	-1.1	-4.0
O=C(NCc1ccc(F)cc1)c1ccc[nH]1	0.65	-1	19%	3.5	3.5	6.1	-0.4
O=C(NCc1ccc(F)cc1)c1cccc2c1C(=O)N(Cc1cccnc1)C2	0.68	-6	3%	2.9	0.0	6.2	-0.1
O=C(N/N=C/c1cc([N+](=O)[O-])ccc1O)NC12CC3CC(CC(C3)C1)C2	.	6	?	3.6	-0.3	.	0.7
CCOC(=O)C1=NNC(C(=O)O)C1c1ccccc1 (stereo unspecified)	.	-2	-4%	.	-5.3	.	.
Cc1ccc(CC2SC(=Nc3ccccc3)N(c3ccccc3)C2=O)cc1 (stereo unspecified)	0.76	3	-7%	0.0	-2.9	4.3	0.2
COc1cc(OC)cc(C(=O)Nc2ccc(-c3nc4ccccc4o3)c(O)c2)c1	0.7	4	-12%	-5.3	15	i	-0.6

Ordered by molar mass (falling): some entries from above.
SMILES	E coli growth	B2AR ag	Vif TR-FRET	LANA-H2B inh	HNF4A DNA FP	UCH37 DUB inh	Bfl-1 A1 inh
CCOc1cc(S(=O)(=O)N2CCOCC2)ccc1F	0.68	-8	4%	-4.2	1.4	4.2	0.6
CCOC(=O)C1=NNC(C(=O)O)C1c1ccccc1 (stereo unspecified)	.	-2	-4%	.	-5.3	.	.
Nc1ccc2c(c1)Cc1c(F)cccc1-2	0.7	4	1%	.	1.1	1.1	.

(continued)
SMILES	E coli growth	B2AR ag	Vif TR-FRET	LANA-H2B inh	HNF4A DNA FP	UCH37 DUB inh	Bfl-1 A1 inh
CCc1ccc(S(=O)(=O)NCc2ccc(N3CCN(C)CC3)cc2)cc1	0.69	7	1%	-3.2	-2.0	4.6	0.2
CN(C)S(=O)(=O)c1ccc(C(=O)Nc2ccc(CN3CCCC3)cc2)cc1	0.76	0	-7%	-5.4	3.4	-4.6	0.0
Cc1cc(C)c2c(=O)n(CC(=O)Nc3cccc(Cl)c3C)sc2n1	0.66	-9	-38%	-1.0	3.6	3.4	0.5
COc1cc(C(=O)NNC(=O)CSc2nnc3ccccn23)cc(OC)c1OC	0.68	-5	6%	-3.1	1.1	-0.1	-0.3
COc1cccc(-c2nn(-c3ccccc3)cc2C(=O)O)c1	0.69	3	-1%	-5.5	1.3	1.0	0.2
COc1cc(-c2nc3ccc4ccccc4c3c3c2CCC3)cc(OC)c1OC	0.74	1	-17%	11	0.8	-29	0.0
O=c1c(S(=O)(=O)c2ccc(Cl)cc2)cn(Cc2ccccc2)c2ccc(F)cc12	0.72	-1	-28%	-9.4	0.1	1.9	-1.6
CN(C)CC(C)(C)CNC(C(=O)Nc1ccc(Cl)cc1C(F)(F)F)c1ccccc1 (stereo unspecified)	0.67	5	11%	4.0	0.0	1.8	0.6
COc1ccc(C)cc1Cn1nnc2ccccc21	0.67	2	.	5.6	-2.3	0.3	1.1
O=C(C1CCN(S(=O)(=O)c2cccnc2)CC1)N1CCCCC1	0.67	-3	7%	2.8	-1.5	-1.9	-0.2
Cc1ccnc(NC(=O)c2sc3cc(Cl)ccc3c2Cl)c1	0.69	-14	-2%	-4.4	-1.5	-5.8	-0.7
CCc1csc(CCNC(=O)C2CCC(=O)N(Cc3ccccc3F)C2)n1 (stereo unspecified)	.	-2	.	4.0	3.7	.	-0.2
Cc1ccc(C(C)C)c(OCC(O)CN(C)Cc2ccccc2)c1 (stereo unspecified)	0.62	-5	3%	0.8	3.1	1.7	-0.5
O=C(CN1C(=O)COc2ccc(Cl)cc21)NCC1CCCO1 (stereo unspecified)	0.71	31	2%	-7.4	9.0	4.5	0.4
Cn1cccc1-c1cc(C(=O)N/N=C/c2ccccc2Cl)[nH]n1	.	8	.	-2.5	-6.7	.	0.6
CC(=O)Nc1nc(-c2ccccc2)ns1	0.66	3	6%	-2.0	1.6	1.4	0.4
CN(CC(=O)Nc1ccc(F)cc1)CC(=O)Nc1ccc(F)c(F)c1F	0.7	6	.	0.3	-0.1	-0.5	0.0
CCCCN(CC)C(=O)/C=C/c1cccc([N+](=O)[O-])c1	0.75	-1	17%	-2.7	-0.7	1.7	0.8
CC(=O)c1ccc(N2CCN(S(=O)(=O)c3c(C(=O)N4CCCC4)c(C)n(C)c3C)CC2)cc1	0.72	-5	.	1.6	1.1	2.7	4.3
CCCCCCN=CC1=C(O)C(C(=O)OC)C(C)(C)CC1=O (stereo unspecified)	0.78	-5	5%	1.9	2.5	1.4	-0.7
CCCOc1ccc(N2C(=O)CC(NCC(=O)OCC)C2=O)cc1 (stereo unspecified)	0.66	3	.	-2.6	-1.6	2.2	-0.2
COc1ccc(NC(=O)CN(c2cc(C)cc(C)c2)S(=O)(=O)c2c(C)noc2C)cc1	0.69	6	1%	.	-2.5	3.5	.
C=CCN(CC=C)C(=O)c1cccc(OC2CCN(S(=O)(=O)N(C)C)CC2)c1	0.7	-4	.	-0.1	-1.6	2.4	-0.1
CCN(CC(=O)Nc1ccc2c(c1)OCCO2)CC(=O)Nc1ccc(C)c([N+](=O)[O-])c1	0.67	-7	-7%	2.9	4.1	1.6	0.7
O=C(COC(=O)/C=C/c1ccc(OC(F)F)cc1)Nc1ccc(N2CCOCC2)cc1	0.69	-10	-3%	2.9	-1.6	1.9	0.1
More results follow.
SMILES	E coli growth	B2AR ag	Vif TR-FRET	LANA-H2B inh	HNF4A DNA FP	UCH37 DUB inh	Bfl-1 A1 inh
COc1ccc(-n2c(Cn3c(=O)sc4ccccc43)nnc2SC)cc1	0.69	-1	28%	-1.9	2.0	-0.1	0.9
CC(C)(C)NCCC(O)c1cc(C(F)(F)F)nc2c(C(F)(F)F)cccc12 (stereo unspecified)	.	9	-5%	.	-2.0	.	.
CC(C)(C)c1ccc(/C=C/C(=O)Nc2ccncc2)cc1	0.75	10	.	-1.1	-0.9	4.8	-1.7
O=C(Cc1c(F)cccc1Cl)NNC(=O)c1ccco1	0.71	-11	-5%	2.9	6.9	0.8	0.0
O=C(NC(=S)Nc1ccc(Cc2ccncc2)cc1)c1ccccc1F	0.71	-8	-4%	0.2	0.8	3.4	0.3
COC(=O)c1c(C(C)=O)cnc2ccc(Br)cc12	0.74	0	29%	0.4	0.7	3.9	0.3
N#CC1=C(N)SC(N)=C(C#N)C1c1ccc(C(F)(F)F)cc1	.	.	0%	-19	.	.	0.1
COc1ccc(S(=O)(=O)Cc2ccc(C(=O)N3CCC(C(N)=O)CC3)o2)cc1	0.74	5	-1%	-0.9	1.0	5.7	0.9
O=c1ccc(/C=C/c2ccccc2)nn1Cc1ccc(Cl)cc1Cl	0.79	11	1%	-0.5	-0.2	-26	0.1
CC(=O)Nc1cccc2c1C(=O)NC2=O	0.67	-18	21%	3.7	-0.7	-116	0.4
C/C(CC(=O)NCCc1ccccc1)=N\NC(=O)COc1ccc(Br)cc1	.	-6	-4%	3.9	2.5	.	-0.1
O=C(NCC1CCCO1)c1onc(CSc2cccc(Cl)c2)c1C(=O)O (stereo unspecified)	0.69	1	5%	7.2	-2.1	4.7	-0.1
CCOc1ccccc1-n1c(SCC(=O)Nc2ccc(CC)cc2)nc2n[nH]c(C)c2c1=N	0.73	.	1%	4.5	.	-81	-0.5
Cc1ccc(C2=NCCn3c2c2ccccc2[n+]3[O-])cc1	0.64	-3	.	-6.4	0.0	3.9	0.5
CCOCCc1nnc(NC(=O)CCC2CCCCC2)s1	0.7	-2	2%	-2.3	1.3	-1.3	-0.7
CC(C)NS(=O)(=O)c1ccc(CCC(=O)NCc2cccnc2)cc1	0.7	0	?	-3.7	1.7	1.6	-0.7
C=CCOC(=O)C1=C(C)N=C2SCCC(=O)N2C1/C=C/c1ccccc1 (stereo unspecified)	0.68	-14	-16%	-0.7	9.7	1.6	1.0
CCOC(=O)c1nnn(-c2nonc2N)c1-c1ccccc1	0.69	0	0%	0.0	2.1	0.6	0.2
O=C(NC1CCCc2c1cnn2-c1ccccc1F)c1ccccc1N1CCOCC1 (stereo unspecified)	0.7	11	-3%	-0.9	3.6	1.1	0.1
O=C1C(N2CCOCC2)=C(n2nnc3ccccc32)C(=O)c2ccccc21	0.67	-3	25%	1.4	-3.3	72*	1.5
Cc1cc(C)n(-c2ccc(C(=O)N3CCc4ccccc43)cc2)n1	0.7	-6	0%	-1.9	0.5	1.2	-5.4
COc1cccc(CNC(=O)Cn2nc([N+](=O)[O-])c(Br)c2C)c1	.	9	-5%	4.7	0.4	.	0.3

Two records drawn at random from those above:
SMILES	E coli growth	B2AR ag	Vif TR-FRET	LANA-H2B inh	HNF4A DNA FP	UCH37 DUB inh	Bfl-1 A1 inh
N#CC1=C(N)SC(N)=C(C#N)C1c1ccc(C(F)(F)F)cc1	.	.	0%	-19	.	.	0.1
COC(=O)c1c(C(C)=O)cnc2ccc(Br)cc12	0.74	0	29%	0.4	0.7	3.9	0.3
